# Source: PubChem
# miR-21 FLuc – raises the signal of a miR-21 reporter | 340,000 tested, under 10 active | Potency, µM (series often up to 38.3 µM), for the others: at the top dose reporter change, positive = more light | HeLa miR-21 FLuc reporter, luciferase, 48 h; active = well fitted rising curve with a large enough effect; inconclusive = small, poorly fitted or top-dose-only effect; inactive = no such curve, though single readings can be large or run the other way;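 further: % of control where 0% means no effect; miR-21 action dims this reporter so a rising signal means less miR-21 action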
#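 Luminescence from a firefly luciferase reporter carrying a miR-21 binding site downstream, stably expressed under a CMV promoter in HeLa cells that make miR-21 endogenously, reports miRNA modulation after 48 h compound exposure up to approximately 40uM final.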
# Rango dissoc inh – prevents RanGTP from dissociating the Rango-importin beta complex | Biochemical FRET Rango-importin beta, RanGTP-induced dissociation | 340,000 tested, 0.071% active | Potency, µM (top dose mostly 46.1 µM), inactives show top-dose activity change, negative = inhibition; active means falling FRET ratio curve, often poorly fitted, with flat reads before Ran was added; inconclusive means other falling curves, or compound fluorescence or quenching; inactive means flat or rising ratio curve;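 further: potency means the concentration at half of the fitted maximal effect; % of control where 0% means no effect; nearly all actives have a fitted effect of over 45% in size; -100% = wells without RanGTP and RCC1; the record marks most hits as doubtful in a second field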
#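 Compounds preincubate 5 min with complex of recombinant Rango and importin beta in PBS with 1 mM DTT. Ran (0.6 uM) loaded with 2 mM GTP plus 0.2 uM RCC1 starts dissociation; FRET is recorded 45 min later.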
# Rango-impB inh – prevents formation of the Rango-importin beta complex. Rango CFP/YFP FRET sensor + importin beta, 45 min. 340,000 tested, 0.031% active. Q14974. Potency, µM (doses to about 92.2 µM), without a hit: at the highest dose inhibition of complex formation; active = rising FRET ratio curve, often small or poorly fitted; inconclusive = mostly compound fluorescence or quenching in the first reads; inactive = flat curves in all reads;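 further: potency means the concentration at half of the fitted maximal effect; 0% = DMSO wells and 100% = buffer wells lacking importin beta; nearly all actives have a fitted effect of over 15% in size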
#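 FRET biosensor (snurportin 1 IBB flanked by EYFP and cerulean), 50 nM, with compound 5 min, then 0.125 microM importin beta in PBS, 1 mM DTT, 0.02% Tween-20, 0.1% BSA. CFP/YFP ratio read after 45 min at room temperature; pre-read flags interference.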
# GLA inh pH 4.5 – alpha-galactosidase A (human) inhibition, pH 4.5. P06280. 230,000 tested, under 10 active. activity change, negative = inhibition, % at 105 µM. AID 1467. purified enzyme, 4-MU-alpha-Gal fluorescence, pH 4.5; inconclusive = small, poorly fitted or top-dose-only inhibition, or a rising curve; inactive = flat fitted curve, though single readings scatter; no compound was filed as active;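 further: 0% = full activity with enzyme and -100% = basal without enzyme; dose as in the result columns while the protocol names 77 µM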
# Target sequence (P06280 whole entry, looked up): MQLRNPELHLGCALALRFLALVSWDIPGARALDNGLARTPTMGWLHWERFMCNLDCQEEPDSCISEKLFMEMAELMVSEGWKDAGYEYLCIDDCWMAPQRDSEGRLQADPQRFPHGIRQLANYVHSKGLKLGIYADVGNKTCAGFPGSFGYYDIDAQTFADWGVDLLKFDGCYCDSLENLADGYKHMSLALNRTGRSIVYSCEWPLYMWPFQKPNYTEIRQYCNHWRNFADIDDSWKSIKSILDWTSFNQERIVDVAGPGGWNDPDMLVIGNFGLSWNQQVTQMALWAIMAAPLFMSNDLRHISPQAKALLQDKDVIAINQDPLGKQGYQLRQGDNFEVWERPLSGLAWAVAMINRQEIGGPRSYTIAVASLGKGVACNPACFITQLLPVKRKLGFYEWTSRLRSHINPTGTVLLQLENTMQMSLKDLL
# Numbers without * were called inactive; ? = inconclusive; · = not tested or not shown; & = joins results of further samples; [ ] = another dose, or the depositor's remark. Some of the compounds tested; count on the stated rates, not on these rows.
# The line under a structure holds: miR-21 FLuc	Rango dissoc inh	Rango-impB inh	GLA inh pH 4.5
> CC1(C)CC(=O)C2=C(C1)N=C1SCCC(=O)N1C2c1ccc(C(F)(F)F)cc1 (stereo unspecified)
→ -6.5%	-11.2%	0.2%	4.0
> CC(C)(C)c1cc(C(=O)N/N=C/c2cc3c(cc2Br)OCO3)n[nH]1
→ -3.3%	1.5%	-1.7%	·
> Cc1ccccc1C(=O)Nc1ccc(C(=O)N/N=C/c2ccncc2)cc1
→ 0.6%	2.8%	?	-2.7
> CSCCC(NS(=O)(=O)c1ccc(C)cc1)C(=O)N1CCCCCCC1 (stereo unspecified)
→ ·	-2.5%	3.1%	·
> Cc1cnc(C(=O)OCc2ccc(COC(=O)c3cnc(C)cn3)cc2)cn1
→ -2.6%	-16.6%	6.4%	-2.7
> COc1cccc(NC(=O)c2ccc(NS(=O)(=O)c3cccs3)cc2)c1
→ ·	-21.5%	-3.1%	·
> Cc1[nH]n(-c2ccccc2)c(=O)c1N=Nc1ccc2c(c1)OCCO2
→ -14.5%	11.8%	-0.1%	-14.5
> CCOc1ccc(NC(=O)CN(C)C(=O)c2cc(S(=O)(=O)N(C)C)ccc2N2CCCC2)cc1OCC
→ ·	-7.4%	7.8%	·
> COc1ccc(CNCC(O)(c2ccccc2)c2ccc(F)cc2)cc1 (stereo unspecified)
→ 0.1%	-7.2%	-1.1%	·
> CCCCCN(C(=O)CCC(=O)OCC(=O)c1ccc(F)c(F)c1)c1c(N)n(CCCC)c(=O)[nH]c1=O
→ ·	0.0%	-0.4%	·
> Cc1cccc(CSc2nnc(C)c(=O)n2N)c1
→ -11.5%	7.3%	-1.4%	-7.9
> Cc1ccc(NC(=S)NC(NC(=O)c2ccccc2)C(Cl)(Cl)Cl)c(C)c1 (stereo unspecified)
→ ?	-11.9%	-2.7%	-7.3
> Cc1nn(CC(=O)Nc2cccc(C(F)(F)F)c2)c(=O)c2cccn12
→ -5.2%	-7.4%	0.3%	·
> O=C(O)C1CCCCC1C(=O)Nc1ccc2c(c1)OCO2 (stereo unspecified)
→ -5.5%	1.5%	?	·
> N/C(=N\OC(=O)c1ccc(Cl)cc1)c1ccn[nH]1
→ -13.1%	1.8%	3.6%	·
> CCOC(=O)c1sc(Nc2nc(C)cc(C)n2)nc1C
→ 8.3%	2.5%	0.7%	-3.1
> O=C(Cn1c(=O)oc2cc(S(=O)(=O)N3CCCCCC3)ccc21)NC1CCCCCCC1
→ 4.8%	-8.5%	6.7%	-0.4
> COc1cccc(NC(=O)CN(C)C(=O)c2cc3c(s2)CCCCC3)c1
→ ·	-10.8%	-0.7%	·
> CC(=O)c1ccc(N2CCN(CC(O)c3ccccc3)CC2)cc1 (stereo unspecified)
→ -4.5%	11.1%	-2.0%	·
> COc1ccc(NC(=O)CCS(=O)(=O)c2ccccc2Cl)cc1S(=O)(=O)Nc1ccc(Cl)cc1
→ 16.6%	-8.0%	-0.4%	6.2
> CC(C)CN(C(=O)c1cccc(Cl)c1)c1c(N)n(Cc2ccccc2)c(=O)[nH]c1=O
→ ·	-16.4%	0.0%	·
> C/C(=N\NC(=O)CNc1cccc(Cl)c1C)C1CC1
→ -8.6%	3.0%	-0.1%	10.3
> CC1CCC(NC(=O)Cn2c(=O)oc3ccccc32)CC1 (stereo unspecified)
→ 3.9%	2.9%	7.0%	·
> O=C(N/N=C/c1ccc(Br)o1)c1cccnc1
→ -11.2%	-15.9%	0.0%	-4.6
> O=C1CSC(c2ccccn2)N1Cc1cn2ccccc2n1 (stereo unspecified)
→ -1.1%	-17.2%	-4.9%	5.8
> CN(C)CCCN(C(=O)c1cc(-c2cccs2)nc2ccccc12)c1nc2ccc(F)cc2s1
→ ?	-5.6%	0.6%	·
> OCCC1CN(Cc2cccc3c2OCO3)CCN1Cc1ccccc1 (stereo unspecified)
→ 2.6%	14.8%	-0.6%	9.7
> CS(=O)(=O)c1ccc2nc(NC(=O)c3ccc(N4CCCC4=O)cc3)sc2c1
→ -0.8%	-9.2%	2.1%	-5.7
> CCOc1ccc(NC(=O)CN(Cc2ccccc2)S(C)(=O)=O)cc1
→ -22.8%	-11.5%	-1.9%	-4.3
> Cc1ccc(CNC(=S)N2CCOCC2)cc1
→ -1.3%	-9.0%	5.7%	-9.3
> Cc1ccc(-c2[nH]c(=S)[nH]c(=O)c2C#N)cc1
→ 1.8%	-7.7%	0.4%	2.3
> O=C(NCCc1ccccc1)C1CCN(S(=O)(=O)N2CCC3(CC2)OCCO3)CC1
→ -4.6%	1.0%	0.1%	0.7
> Cc1nnc(SCC(=O)Nc2nc(-c3ccc(F)cc3)cs2)[nH]c1=O
→ -30.5%	-6.4%	2.2%	1.4
> Cc1ccc(C[n+]2cc(-c3ccc(Cl)cc3)n3c2CCC3)cc1
→ ?	-4.8%	?	-5.2
> Cc1cc(NC(=O)CSc2nc3ccsc3c(=O)n2NC(=O)c2ccccc2)no1
→ -51.6%	10.0%	4.5%	-13.9
> O=c1cc(-c2ccc(O)cc2)oc2cc(O)cc(O)c12
→ ·	-0.3%	-2.7%	-5.9&-1.3&-3.5&-16.7&0.7
> CC1CCCCN1S(=O)(=O)c1ccc2c(c1)CCN2C(=O)C1CCC1 (stereo unspecified)
→ -4.2%	-0.8%	-1.7%	-8.6
> CCOC(=O)C1(C)C=C(Nc2ccc(C)cc2)C(=O)N1c1ccc(C)cc1 (stereo unspecified)
→ -2.7%	14.8%	?	5.5
> CCc1ccc(C(=O)COC(=O)c2ccc(Cl)nc2)cc1
→ -12.4%	0.9%	0.4%	0.3
> COC(=O)C1C(O)=C(C=NC2CCCCC2)C(=O)CC1(C)C (stereo unspecified)
→ -4.4%	7.7%	3.0%	9.2
> CCCCCC(CC(=O)NO)C(=O)NC(C(=O)N1CCCC1CO)C(C)C (stereo unspecified)
→ ·	-19.3%	2.9%	·
> CCN=C1NN=C(c2cc(C)n(CCc3ccccc3)c2C)CS1
→ -13.4%	-6.0%	-3.4%	-2.4
> Cc1ccc(-c2ccc(C)c(N)c2C)c(C)c1N
→ -6.2%	19.5%	-4.7%	-2.7
> COCCN1C(=O)N[C@@H](c2cccc(C(F)(F)F)c2)[C@H](C(C)=O)[C@H]1C
→ ·	2.0%	0.1%	5.4
> CCN(CC)C(=O)c1ccc(-c2nnc(Nc3cccc(O)c3)c3ccccc23)cc1
→ 10.7%	18.7%	5.6%	·
> COC(C[C@H](O)C[C@H](O)[C@H](C)OCc1ccccc1)OC
→ 0.1%	8.6%	-5.2%	14.7
> C/C(=N\NC(=O)Cc1cccn1C)c1ccco1
→ -7.6%	-13.4%	7.3%	-5.1
> CCOC(=O)Cc1csc(NC(=O)/C=C/c2ccco2)n1
→ -5.7%	-11.4%	-0.2%	-11.2
> Cc1c(C(=O)OCC(=O)N2CC(C)CC(C)C2)oc2ccccc12 (stereo unspecified)
→ ·	-2.0%	-1.2%	·
> Cc1ccc(-c2nc(C=Nc3ccccc3)c(O)o2)cc1
→ -54.1%	-19.8%	?	-9.1[21.1 µM]
> CCN(CC)C(=O)C1CCN(Cc2ccc(OCc3ccccc3)cc2)CC1
→ 0.4%	12.9%	3.8%	·
> Cc1ccc(SC(C)c2nc(-c3ccncc3)no2)cc1 (stereo unspecified)
→ -1.7%	7.1%	0.1%	-1.5
> O=C(/C=C/c1ccc(F)cc1)Nc1ccc(S(=O)(=O)N2CCOCC2)cc1
→ -7.6%	-4.7%	-0.7%	·
> COc1ccc(OC)c(NC(=O)COC(=O)[C@H](Cc2ccccc2)NC(=O)c2ccco2)c1
→ ·	-0.3%	-3.4%	·
> CN(C(=O)CC1C(=O)NCCN1Cc1ccccc1F)C1CCOCC1 (stereo unspecified)
→ -0.6%	0.2%	-3.3%	·
> NC(=O)c1nsc(C(=O)N(c2cccc(O)c2)C(C(=O)NC2CCCC2)c2ccc(Cl)cc2)c1N (stereo unspecified)
→ 19.0%	-15.4%	-0.2%	·
> CCN1CCN(S(=O)(=O)c2ccc(Cl)c(C(=O)N(C)Cc3ccco3)c2)CC1
→ ·	-4.6%	-1.2%	·
> O=C(NCCCN1CCOCC1)c1ccc(Cl)c([N+](=O)[O-])c1
→ ·	4.0%	-1.7%	·
> O=C(NCC(=O)N1CCOCC1)c1ccc(Br)o1
→ ·	8.1%	-0.5%	·
> Nc1ccc(N2CCN(CCCCN3C(=O)C4CCCN4C3=O)CC2)cc1 (stereo unspecified)
→ -8.6%	-0.8%	2.6%	1.8

# Further results:
# The line under a structure holds: miR-21 FLuc	Rango dissoc inh	Rango-impB inh	GLA inh pH 4.5
> CNc1nnc(-c2ccc(C)cc2)c2ccccc12
→ -5.3%	2.2%	1.8%	1.2
> CCCCNC(=S)NNC(=O)C12CC3CC(CC(C3)C1)C2
→ -6.5%	-10.0%	3.4%	-17.7
> CCCC(=O)N(CC(=O)Nc1sc(C)c(C)c1C(N)=O)Cc1ccccc1
→ 4.5%	1.8%	0.6%	-10.3
> CC(=O)c1ccc(NC(=O)CCC(=O)N2CC(C)Oc3ccc(C)cc32)cc1 (stereo unspecified)
→ 3.2%	-5.7%	0.5%	·
> O=C(Cc1ccc(Cl)cc1)Nc1cccc2ncccc12
→ 5.6%	17.7%	-3.2%	5.4
> CCN1CCN(S(=O)(=O)c2ccc(Cl)c(C(=O)NC3CCCC3)c2)CC1
→ ·	12.1%	1.5%	·
> CCOc1ccccc1NC(=O)C(OC(=O)c1ccc(O)cc1)c1ccccc1 (stereo unspecified)
→ -0.6%	4.8%	0.5%	-4.3
> COc1nc(Nc2ccc3c(c2)OCO3)nc(OC)n1
→ -32.8%	-4.8%	0.7%	-3.4
> Cc1oc(-c2cccc(F)c2)nc1CN(Cc1ccccc1)C[C@@H]1CCC(=O)N1
→ -0.2%	9.8%	5.4%	-3.9
> COCc1cc(=O)[nH]c(Nc2nc3ccc(C)cc3o2)n1
→ -36.0%	-9.8%	0.2%	2.7
> Nn1c(SC/C=C/c2ccccc2)nnc1-c1ccncc1
→ -3.6%	-11.6%	1.9%	11.5
> CCN(CC)c1ccc(/C=C2/C(=O)c3ccc(C(=O)O)cc3C2=O)cc1
→ -8.7%	?	?	-8.5
> NNC(=O)c1cccc(COCC(F)(F)C(F)F)c1
→ -12.7%	-5.4%	1.7%	0.2
> CCOc1ccc(CCNC(=O)COC(=O)c2ccc[nH]c2=O)cc1OCC
→ ·	-7.8%	?	·
> CCCC(=O)Nc1c(-c2ccc(C)cc2)c(=O)c2ccccc2n1C
→ -2.0%	-1.3%	-0.3%	·
> CCN(CC)c1ccc(/C=N/N2CCN(c3ccccn3)CC2)cc1
→ -0.9%	0.5%	-1.6%	-23.0
> C=CCn1c(SCC(=O)NCC2CCCO2)nc2sc(C)c(C)c2c1=O (stereo unspecified)
→ -3.6%	?	-3.5%	·
> CN(CC(=O)Nc1ccc(C#N)cc1)CC(=O)Nc1ccc(N2CCOCC2)cc1
→ -5.4%	1.2%	1.2%	1.8
> CC(C)C(=O)Nc1ccc(-c2nc3cccnc3o2)cc1
→ -1.1%	-1.2%	0.0%	4.5
> CC1=Nc2ccccc2N=C(NC(=O)c2ccccc2)C1c1ccc(Cl)cc1 (stereo unspecified)
→ -10.1%	2.8%	-2.8%	-2.5
> COCC(=O)Nc1ccccc1C#N
→ -3.6%	0.2%	-5.1%	-15.8
> CCN(CC)C(=O)CSc1nnc([C@@H](N)Cc2ccccc2)o1
→ -3.4%	6.9%	0.0%	1.4
> O=C(Nc1ccc(F)c(F)c1)c1cc(S(=O)(=O)N2CCN(c3ccccn3)CC2)ccc1F
→ 12.5%	?	0.5%	1.2
> COc1ccccc1Sc1nc(-c2ccccn2)ncc1OC
→ ?	5.1%	0.0%	-5.5
> O=C(COC(=O)CCNS(=O)(=O)c1cccs1)Nc1cc(C(F)(F)F)ccc1Cl
→ ·	-9.9%	1.9%	·
> CN1CCN(C2Cc3ccccc3Sc3cc(C(F)(F)F)ccc32)CC1 (stereo unspecified)
→ ·	0.4%	0.7%	·
> COc1ccc2cc(-c3[nH]ncc3CNCCn3nc(C)cc3C)ccc2c1
→ -18.3%	-5.1%	6.1%	-5.6
> CCCCCCCCCCCC(=O)c1c(O)cccc1O
→ -2.7%	6.4%	-1.4%	3.8
